Six1-Eya2 blk: qHTS Assay for Inhibitors of the Six1/Eya2 Interaction; AlphaScreen GST-Six1/His-Eya2 binding, biochemical; stronger effect = lower value; control for the full effect not named in the record; activity change, % (concentration not given with the values); hit rate 0.56% among 360,000; AID 651725, 2012; in the data active = activity change below about -65%; inconclusive = about -30% to -65%; inactive = above about -30%; also: % is scaled to controls: 0 for no effect and ±100 for the full control effect
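Homogeneous AlphaScreen proximity assay pairing GST-Six1 with His-tagged Eya2 (added as 5X mix: 250 nM and 500 nM) in 50 mM Tris pH 8.0, 300 mM NaCl, 1 mM TCEP. Glutathione donor and nickel acceptor beads; 1 h, 37 °C, dark.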
TRPML1 agonist: qHTS for Agonists of the Human Mucolipin Transient Receptor Potential 1 (TRPML1). hit rate 0.12% among 410,000. TRPML1-expressing cells, Ca2+ dye fluorescence, FDSS; host cell line not named in the record; reference of the full effect not given here. AID 624414, 2012. activation, % (test concentration not listed). Mucolipin-1 (Homo sapiens), Q9GZU1; in the data active = activation above about 50%; inconclusive = about 30% to 50%; inactive = below about 30%; also: 0% is about no effect; the text of the record puts the active cut at 80%
Target sequence (Q9GZU1 whole entry, looked up): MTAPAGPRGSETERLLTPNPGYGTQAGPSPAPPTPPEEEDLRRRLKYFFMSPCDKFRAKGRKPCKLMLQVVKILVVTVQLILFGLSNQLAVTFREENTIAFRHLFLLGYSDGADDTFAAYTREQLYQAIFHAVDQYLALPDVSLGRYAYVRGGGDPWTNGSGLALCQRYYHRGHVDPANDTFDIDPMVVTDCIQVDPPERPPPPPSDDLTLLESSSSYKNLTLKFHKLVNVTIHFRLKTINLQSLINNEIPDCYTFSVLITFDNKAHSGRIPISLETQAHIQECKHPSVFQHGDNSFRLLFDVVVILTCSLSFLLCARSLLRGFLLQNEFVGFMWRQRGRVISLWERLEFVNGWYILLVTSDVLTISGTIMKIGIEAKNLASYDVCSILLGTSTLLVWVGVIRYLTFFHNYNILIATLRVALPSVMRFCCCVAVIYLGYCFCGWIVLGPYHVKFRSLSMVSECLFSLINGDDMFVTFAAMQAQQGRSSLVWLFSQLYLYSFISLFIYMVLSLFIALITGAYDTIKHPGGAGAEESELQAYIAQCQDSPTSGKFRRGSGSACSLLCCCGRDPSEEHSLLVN
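Cells: TRPML1-DL, 1X Tet inducer, ~16 h at 37 degrees C/5% CO2. Dye: ABD Ca8 no-wash + quencher, 45-90 min RT. Read: 10 s baseline, compound add, 110 s agonist phase; 54-4 EC80 (4uM final), 110 s antagonist phase.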
TRPV1 potentiator: HTS Assay for Compounds that Act as Potentiators of the Vanilloid Receptor 1 | TRPV1-expressing cells, Fluo-8 calcium influx, capsaicin EC20 potentiation; host cell line not named in the record; control for the full effect not named in the record | potentiation, % at 8.33 µM | hit rate 0.02% among 320,000 | AID 540277, 2011; active means potentiation above 80%; inconclusive means 30% to 80%; inactive means below 30%; also: 0% is about no effect
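TRPV1-expressing cells were cultured overnight at 35.5C and loaded with Fluo-8 calcium dye for 40 to 90 min at room temperature. After a 10 s baseline, compound was added and calcium influx was read kinetically for 3 min (ex 480/em 520 nm).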
TRPML1 blocker: qHTS for Inhibitors of the Human Mucolipin Transient Receptor Potential 1 (TRPML1) | Mucolipin-1 (Homo sapiens), Q9GZU1 | TRPML1-inducible cells, Ca2+ dye fluorescence, FDSS; stronger effect = lower value; inhibition of EC80 agonist-evoked calcium signal | activity change, negative = inhibition, % (concentration not given with the values) | hit rate 0.02% among 390,000 | AID 624415, 2012; in the data active means activity change below about -50%; inconclusive means about -30% to -50%; inactive means above about -30%;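 also: stimulus is agonist 54-4 at its EC80 concentration; % is scaled to controls: 0 for no effect and ±100 for the full control effect; compound concentration not given in the record; the text of the record puts the active cut at -80%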
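TRPML1-DL cells, Tet-induced overnight (~16 h, 37 °C) at 1,500 cells/well, were loaded with Ca8 no-wash dye plus quencher for 45-90 min at room temperature. Compounds were pinned during FDSS kinetic reading; agonist 54-4 at EC80 (4 uM final) then added.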
D2 potentiator: Beta-Arrestin HTS for Positive Allosteric Modulators of the Human D2 Dopamine Receptor: Potentiators. D(2) dopamine receptor (Homo sapiens), P14416. DiscoveRx D2 beta-arrestin cells, luminescence, 90 min; 100% = 57 uM dopamine signal. potentiation, % (no concentration beside the values). hit rate 0.23% among 360,000. AID 624464, 2012; active = potentiation of 50% or more; inconclusive = 30% to 50%; inactive = 30% or less;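 also: compound concentration not given in the record; tested on top of an EC20 dose of dopamine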
Target sequence (P14416 whole entry, looked up): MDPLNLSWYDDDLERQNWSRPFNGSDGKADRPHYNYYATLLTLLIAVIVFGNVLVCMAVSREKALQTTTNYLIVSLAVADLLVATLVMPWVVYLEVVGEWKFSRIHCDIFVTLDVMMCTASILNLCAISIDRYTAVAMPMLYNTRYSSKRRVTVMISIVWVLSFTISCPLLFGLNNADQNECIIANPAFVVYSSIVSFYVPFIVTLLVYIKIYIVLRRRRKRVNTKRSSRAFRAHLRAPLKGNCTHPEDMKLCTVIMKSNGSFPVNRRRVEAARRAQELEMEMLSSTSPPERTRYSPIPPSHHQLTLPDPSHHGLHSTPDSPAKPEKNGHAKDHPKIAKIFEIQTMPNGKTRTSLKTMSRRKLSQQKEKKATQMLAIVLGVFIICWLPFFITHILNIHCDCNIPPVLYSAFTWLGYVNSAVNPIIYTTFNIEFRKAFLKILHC
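PathHunter D2 cells, attached overnight at 37 deg C, received compound in DMSO plus dopamine at EC20 (50 nM final) for 90 min at 37 deg C. Beta-arrestin recruitment was read as luminescence after 1 h with detection reagent at ambient temperature.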
CtBP-E1A blk: qHTS Assay for Inhibitors of the CtBP/E1A Interaction | CtBP / adenovirus E1A interaction (AlphaScreen) | AlphaScreen GST-E1A/His-CtBP binding, 1536-well; stronger effect = lower value; control for the full effect not named in the record | activity change, % (no concentration beside the values) | hit rate 0.49% among 340,000 | AID 651724, 2012; in the data active means activity change below about -65%; inconclusive means about -30% to -65%; inactive means above about -30%; also: % is scaled to controls: 0 for no effect and ±100 for the full control effect; compound concentration not given in the record
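GST-E1A and His-tagged CtBP (125 nM each as 5X stock) were preincubated with pin-transferred compound for 2 h at 37 °C in the dark, then glutathione donor and nickel acceptor beads were added for 1 h before AlphaScreen reading.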
* marks the source's active call; other numbers are inactive results; ? = inconclusive; · = not tested or not shown.

SMILES	Six1-Eya2 blk	TRPML1 agonist	TRPV1 potentiator	TRPML1 blocker	D2 potentiator	CtBP-E1A blk
Cc1cc(NC(=S)NC(=O)/C=C/c2ccc(S(=O)(=O)N3CCOCC3)cc2)ccc1Br	-1	-0.1	-30	11	2	1
Cc1cc(C)c(C(N)=O)c(NC(=O)Nc2ccccc2Cl)n1	4	0.2	5	15	-2	-1
CC(C)(C)c1ccc(-c2nc(C#N)c(NCc3ccncc3)o2)cc1	-7	1.3	-5	-16	-12	-7
O=C1c2ccccc2C(=O)N1CCCCc1cn(C[C@H]2CC[C@@H]([C@@H]3CC[C@H](Cn4cc(CCCCN5C(=O)c6ccccc6C5=O)nn4)O3)O2)nn1	0	-0.1	·	23	5	3
CCC(=O)Nc1cc(C(=O)OCc2ccc(C(=O)Oc3ccccc3)cc2)ccc1C	5	0.2	5	-22	-24	0
CC(=O)Nc1ccc(S(=O)(=O)NCCC(=O)OC(C)C(=O)c2ccc(C)cc2)cc1 (configuration not stated)	-4	1.5	-7	-2	-10	-3
CCN(CC)S(=O)(=O)c1cccc(C(=O)OCC(=O)c2ccc3c(c2)OCCO3)c1	3	-0.4	?	71	21	-5
CCCCCCc1c(C)[nH]c2nc3ccccc3n2c1=O	1	1.4	1	8	-7	·
O=C(OCC(=O)N1CCN(c2ccccc2)CC1)c1ccc2ccccc2n1	-1	3.3	-2	8	-11	4
Cc1ccc(S(=O)(=O)/N=C2/NC(=O)/C(=C/c3ccc(Br)o3)S2)cc1	5	2.3	22	-12	-9	-11
CC(=O)Nc1cccc(CCc2nc3ccccc3[nH]2)c1	7	-0.2	-4	-6	-11	6
Cc1cc(S(=O)(=O)N2CCCCC2CCNC(=O)C(=O)NCCN2CCOCC2)ccc1F (configuration not stated)	0	0.2	·	-15	-19	4
Cc1ccc(-c2cc(C(=O)Nc3ccccc3C)c3ccccc3n2)o1	-5	-0.8	1	-1	0	0
Cc1ccc(-n2c(C)cc(/C=N/NC(=O)CC3(C)OCCO3)c2C)cc1	-13	-0.9	-10	-4	-32	-4
O=C(NCCc1ccccc1)c1c(O)c2cccc3c2n(c1=O)CC3	7	0.7	9	18	5	-2

Copied from the list.
For D2 potentiator, Cc1ccc(-c2cc(C(=O)Nc3ccccc3C)c3ccccc3n2)o1 is entered as 0
For Six1-Eya2 blk, O=C1c2ccccc2C(=O)N1CCCCc1cn(C[C@H]2CC[C@@H]([C@@H]3CC[C@H](Cn4cc(CCCCN5C(=O)c6ccccc6C5=O)nn4)O3)O2)nn1 is entered as 0

Remaining list, next part
SMILES	Six1-Eya2 blk	TRPML1 agonist	TRPV1 potentiator	TRPML1 blocker	D2 potentiator	CtBP-E1A blk
CCCCCC1CC(CC(=O)Nc2nncs2)C(=O)O1 (configuration not stated)	-3	-0.9	-2	0	-8	-3
Clc1ccccc1N1CCN(Cc2ccc(Br)o2)CC1	-15	-0.7	·	-19	-14	3
Nc1cccc(-c2c[nH]c3ncc(-c4cccnc4)cc23)c1	-25	0.5	·	-8	-2	·
O=C(O)CC1=C(O)C(=O)N(c2ccccc2)C1c1ccccc1 (configuration not stated)	-2	-0.9	11	6	-13	5
CCN(CC)S(=O)(=O)c1ccc(=O)[nH]c1	4	2.1	1	-11	-28	·
Cc1nnc(NC(=O)C2CCCN2S(=O)(=O)c2ccc(Cl)cc2)s1 (configuration not stated)	2	-0.8	-4	25	-3	-2
CCO[C@H]1OC(C(=O)NC2CC2)=C[C@@H](c2coc3ccccc3c2=O)[C@@H]1CCCO	5	-0.2	-1	-12	-5	7
O=C(O)c1ccnc(C(=O)O)c1	-69*	-0.7	1	1	-10	?
COC(=O)[C@H](CC(C)C)NC(=O)Nc1ccc2c(c1)OCCO2	5	-0.5	4	-5	-17	9
Cc1ccc(C2NC(=NCc3ccccc3)Nc3nc(C)cc(=O)n32)cc1 (configuration not stated)	1	1.0	-9	-13	-14	0
Cc1[nH]c(C)c2c(=O)[nH]ncc12	-9	0.0	1	21	-3	-1
O=C(Nc1ccc2oc(=O)ccc2c1)c1ccc(-c2cccc(Cl)c2)o1	6	·	22	·	-1	-8
Cc1nn(C)c(C)c1NC(=O)c1ccnn1C	0	0.7	18	-10	-5	2
CCOc1cc(CNCc2cccs2)ccc1OCC(=O)NC(C)(C)C	3	1.6	4	1	-17	7
Cc1ccc(-c2nn(-c3ccccc3)cc2/C=C2\SC(=S)N(CCCCCC(=O)O)C2=O)o1	17	15	4	12	2	-4

Five entries from above in a different format:
compound | Six1-Eya2 blk | TRPML1 agonist | TRPV1 potentiator | TRPML1 blocker | D2 potentiator | CtBP-E1A blk
Nc1cccc(-c2c[nH]c3ncc(-c4cccnc4)cc23)c1 | -25 | 0.5 | · | -8 | -2 | ·
O=C(O)CC1=C(O)C(=O)N(c2ccccc2)C1c1ccccc1 (configuration not stated) | -2 | -0.9 | 11 | 6 | -13 | 5
CCN(CC)S(=O)(=O)c1ccc(=O)[nH]c1 | 4 | 2.1 | 1 | -11 | -28 | ·
Cc1nnc(NC(=O)C2CCCN2S(=O)(=O)c2ccc(Cl)cc2)s1 (configuration not stated) | 2 | -0.8 | -4 | 25 | -3 | -2
CCO[C@H]1OC(C(=O)NC2CC2)=C[C@@H](c2coc3ccccc3c2=O)[C@@H]1CCCO | 5 | -0.2 | -1 | -12 | -5 | 7

Other results:
SMILES	Six1-Eya2 blk	TRPML1 agonist	TRPV1 potentiator	TRPML1 blocker	D2 potentiator	CtBP-E1A blk
COc1ccc(-c2c(C)cc3oc(=O)cc(-c4ccccc4)c3c2C)cc1F	8	0.3	·	-6	-4	-6
CC(Oc1ccccc1)C(=O)N=C1SC2CS(=O)(=O)CC2N1Cc1ccccc1 (configuration not stated)	4	-0.5	29	20	5	-1
Cc1ccc(Cl)c(OC(=O)C2CSC3(C)CCC(=O)N23)c1 (configuration not stated)	1	1.9	-2	13	-3	6
NC(=O)CNC(=O)C1CCCc2c1[nH]c1ccc(Cl)cc21 (configuration not stated)	-1	0.3	-17	11	1	-4
CCCc1cc(=O)oc2c(C)c(OCC(=O)N3CCC(C(N)=O)CC3)ccc12	5	·	7	·	14	4
CC(=O)Nc1ccc(-c2ccnc3c2CC(C(=O)Nc2cccc(OC(F)(F)F)c2)O3)cc1 (configuration not stated)	-1	0.2	·	·	3	-3
COc1ccc([N+](=O)[O-])cc1NS(=O)(=O)c1cccc(C(=O)OC2CCOC2=O)c1 (configuration not stated)	4	1.1	·	-2	-24	-13
Cc1n[nH]c(C)c1S(=O)(=O)N1CCc2ccccc21	8	-0.6	2	2	-3	-5
CCc1nnc2sc(-c3ccc(NC(=O)c4ccc5c(c4)OCCO5)cc3)nn12	0	-0.9	4	-15	?	7
Cc1nc2ccccc2c2oc(C(=O)N3CCN(c4ccc([N+](=O)[O-])cc4)CC3)cc12	5	-0.5	11	-3	0	-3
NNC(=O)c1ccc2[nH]c3c(c2c1)CCCC3	-1	-0.2	11	-12	-13	6
O=C(O)c1[nH]c2ccccc2c1CC(=O)N1CCN(c2ccccc2)CC1	-6	0.5	-1	29	-8	1
O=C1NC[C@H](CCCCN2C[C@H](Cc3ccccc3)N(CCc3ccc(O)cc3)C(=O)C2=O)N(CCc2ccc(O)cc2)C1=O	-5	-0.2	·	·	·	6
CC(C)(C)OC(=O)NCc1ccc(NC(=O)c2nc[nH]c2C(=O)NCCCCNC(=O)c2[nH]cnc2C(=O)Nc2ccc(CNC(=O)OC(C)(C)C)cc2)cc1	6	4.1	·	-16	4	5
CC(C)(C)c1ccc(C(=O)Nc2ccc(Oc3cccnc3)nc2)cc1	-14	-0.4	-4	4	4	-1

Three compounds already listed, sorted by SMILES length, largest number first.
SMILES	Six1-Eya2 blk	TRPML1 agonist	TRPV1 potentiator	TRPML1 blocker	D2 potentiator	CtBP-E1A blk
CC(C)(C)OC(=O)NCc1ccc(NC(=O)c2nc[nH]c2C(=O)NCCCCNC(=O)c2[nH]cnc2C(=O)Nc2ccc(CNC(=O)OC(C)(C)C)cc2)cc1	6	4.1	·	-16	4	5
O=C1NC[C@H](CCCCN2C[C@H](Cc3ccccc3)N(CCc3ccc(O)cc3)C(=O)C2=O)N(CCc2ccc(O)cc2)C1=O	-5	-0.2	·	·	·	6
Cc1n[nH]c(C)c1S(=O)(=O)N1CCc2ccccc21	8	-0.6	2	2	-3	-5

Later entries
SMILES	Six1-Eya2 blk	TRPML1 agonist	TRPV1 potentiator	TRPML1 blocker	D2 potentiator	CtBP-E1A blk
COc1cccc(/C=N/NC(=O)CNC(=O)c2ccc(S(=O)(=O)N3CCOCC3)cc2)c1OC	-27	-0.3	0	1	-41	-3
CCc1ccc(/C=C2/SC(=S)N(CCC(=O)NCCCN3CCOCC3)C2=O)cc1	-5	-0.6	1	15	0	-7
CCCCN(C)CCNC(=O)CCNC(=O)Cn1ccc2ccccc2c1=O	3	-0.3	-2	-17	-7	5
Nc1c(C(=O)Nc2ccc(Br)cc2)sc2nc(N3CCOCC3)c3c(c12)CCCC3	2	-0.9	·	0	-5	9
Cc1c(NC(=O)C(C)OC(=O)COc2cccc3c2OC(C)(C)C3)c(=O)n(-c2ccccc2)n1C (configuration not stated)	3	-0.6	-23	10	-1	-2
NC(=O)NC(=O)C(OC(=O)CCNS(=O)(=O)c1ccccc1)c1ccccc1 (configuration not stated)	1	1.9	-6	11	24	5
NS(=O)(=O)c1ccc2nc(NC(=O)Nc3ccccc3F)sc2c1	-18	0.2	1	15	1	-8
O=C(CN1C(=O)COc2ccccc21)NCCN1CCc2ccccc2C1	2	0.3	-1	-2	-24	2
COc1cccc(CC(=O)OCC(=O)N2CCN(c3ccc(F)cc3)CC2)c1	2	1.5	0	21	1	-26
CC(C)C(NC(=O)c1cccc(S(=O)(=O)N2CCOCC2)c1)C(=O)NCCc1ccccn1 (configuration not stated)	2	3.4	-4	-5	23	10
Cc1ccc(NC(=O)C(C)S)cc1 (configuration not stated)	-2	1.2	-7	22	-21	·
Cc1ccc(S(=O)(=O)N2CCN(C(=O)CCOc3cc(C)ccc3C)CC2)cc1	0	1.5	-18	3	-5	-3
COc1ccc(C2NCCC3(O)CCCCC23)c(OC)c1OC (configuration not stated)	4	-0.3	4	9	-15	2
CC(=O)Nc1cc[n+](CC(=O)c2cccc([N+](=O)[O-])c2)cc1	-4	1.0	-3	-4	-6	0
Cn1cccc1C(=O)NC(=O)COC(=O)C12CC3CC(CC(O)(C3)C1)C2	7	0.8	-4	-6	-15	7
Cc1nn(C)c(NC(=O)c2ccc([N+](=O)[O-])cc2)c1Cl	0	-0.4	-33	3	8	-25
CN(C)S(=O)(=O)c1ccc2c(c1)nc(CCC(=O)Nc1ccc(N3CCOCC3)cc1)n2C	-1	2.1	-16	-9	5	-21
C[C@H](NC(=O)c1ccccc1Cl)C(=O)OCC(=O)N1CCN(c2ccccc2)CC1	3	1.7	-1	28	-9	-8

Bioassay records: PubChem BioAssay, National Center for Advancing Translational Sciences (NCATS)
